High-throughput results from PubChem BioAssay.
TRPML1 agonist: qHTS for Agonists of the Human Mucolipin Transient Receptor Potential 1 (TRPML1) | TRPML1-expressing cells, Ca2+ dye fluorescence, FDSS; host cell line not named in the record; reference of the full effect not given here | AID 624414, 2012 | 0.12% of 410,000 active | activation, % (test concentration not listed); in the data active = activation above about 50%; inconclusive = about 30% to 50%; inactive = below about 30%; also: 0% is about no effect; the text of the record puts the active cut at 80%
Target sequence (Q9GZU1 whole entry, looked up): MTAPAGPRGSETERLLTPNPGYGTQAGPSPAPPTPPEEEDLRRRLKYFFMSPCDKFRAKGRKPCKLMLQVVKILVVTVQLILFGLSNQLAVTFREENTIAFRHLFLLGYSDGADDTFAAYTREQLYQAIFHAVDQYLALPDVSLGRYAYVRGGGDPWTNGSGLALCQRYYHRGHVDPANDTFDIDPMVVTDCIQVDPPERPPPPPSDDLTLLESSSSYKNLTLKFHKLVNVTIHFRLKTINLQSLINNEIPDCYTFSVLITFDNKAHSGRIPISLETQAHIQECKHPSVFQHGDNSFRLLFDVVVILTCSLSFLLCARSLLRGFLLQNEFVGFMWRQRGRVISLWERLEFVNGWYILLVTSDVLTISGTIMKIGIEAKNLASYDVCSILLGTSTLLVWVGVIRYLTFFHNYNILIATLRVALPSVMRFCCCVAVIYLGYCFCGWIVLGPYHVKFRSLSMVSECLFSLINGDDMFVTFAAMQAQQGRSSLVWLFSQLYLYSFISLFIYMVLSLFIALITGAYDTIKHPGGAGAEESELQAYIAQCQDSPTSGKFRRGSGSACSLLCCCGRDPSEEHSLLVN
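Tet-induced TRPML1-DL cells, 1,500 per well, cultured overnight, were loaded with a no-wash Ca2+ dye for 45–90 min. Calcium fluorescence was recorded on the FDSS for 110 s after compound addition, before the EC80 agonist (4 uM 54-4) was added.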
D2 potentiator: Beta-Arrestin HTS for Positive Allosteric Modulators of the Human D2 Dopamine Receptor: Potentiators | D(2) dopamine receptor (Homo sapiens), P14416 | DiscoveRx D2 beta-arrestin cells, luminescence, 90 min; 100% = 57 uM dopamine signal | potentiation, % (test concentration not listed) | 0.23% of 360,000 active; active = potentiation of 50% or more; inconclusive = 30% to 50%; inactive = 30% or less;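 also: compound concentration not given in the record; tested on top of an EC20 dose of dopamine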
Target sequence (P14416 whole entry, looked up): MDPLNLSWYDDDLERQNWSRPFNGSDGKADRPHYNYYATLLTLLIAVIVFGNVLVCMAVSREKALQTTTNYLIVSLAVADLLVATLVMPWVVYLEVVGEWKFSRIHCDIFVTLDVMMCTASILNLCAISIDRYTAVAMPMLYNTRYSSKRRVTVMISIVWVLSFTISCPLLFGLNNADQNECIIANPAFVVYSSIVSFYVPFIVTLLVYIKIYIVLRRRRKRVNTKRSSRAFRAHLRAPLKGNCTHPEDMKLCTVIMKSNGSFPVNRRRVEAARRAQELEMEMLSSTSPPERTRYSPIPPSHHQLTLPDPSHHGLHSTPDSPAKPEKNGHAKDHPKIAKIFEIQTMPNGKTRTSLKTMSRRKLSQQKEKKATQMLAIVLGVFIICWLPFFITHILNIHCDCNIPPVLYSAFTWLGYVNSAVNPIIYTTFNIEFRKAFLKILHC
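PathHunter beta-arrestin assay in DiscoveRx D2 cells. Compounds were added with an EC20 of dopamine (50 nM final) for 90 min at 37 deg C. Luminescence was read 1 h after detection reagent, with 57 uM dopamine as the EC100 control.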
Six1-Eya2 inh: qHTS Assay for Inhibitors of the Six1/Eya2 Interaction. Homeobox protein SIX1 (Homo sapiens) + Protein phosphatase EYA2 (Homo sapiens), …. AlphaScreen GST-Six1/His-Eya2 binding, biochemical; stronger effect = lower value; control for the full effect not named in the record. activity change, % (test concentration not listed). 0.56% of 360,000 active. AID 651725, 2012; in the data active = activity change below about -65%; inconclusive = about -30% to -65%; inactive = above about -30%; also: % is scaled to controls: 0 for no effect and ±100 for the full control effect; compound concentration not given in the record
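AlphaScreen luminescence read after one hour at 37 °C in darkness. Pin-transferred compounds met GST-Six1 and His-Eya2 protein (5X stock 250 nM/500 nM) plus glutathione donor and Ni-chelate acceptor beads (5X, 50 ug/mL).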
CtBP-E1A blk: qHTS Assay for Inhibitors of the CtBP/E1A Interaction; CtBP / adenovirus E1A interaction (AlphaScreen); AlphaScreen GST-E1A/His-CtBP binding, 1536-well; stronger effect = lower value; control for the full effect not named in the record; activity change, % (concentration not given with the values); 0.49% of 340,000 active; AID 651724, 2012; in the data active means activity change below about -65%; inconclusive means about -30% to -65%; inactive means above about -30%; also: % is scaled to controls: 0 for no effect and ±100 for the full control effect
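Steps: dispense buffer (Tris pH 8.0, NaCl 300 mM, TCEP 1 mM, BSA, Tween 20); add 5X protein mix (GST-E1A, His-CtBP, 125 nM each); pin 23 nL compound; 2 h at 37 °C, dark; add 5X beads (50 ug/mL); 1 h; read.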
PINK1 expr mod: A Quantitative High throughput Screen to Identify Chemical Modulators of PINK1 Expression. PINK1 immunofluorescence, high-content cytometry, 24 h. Potency, µM (doses to about 76.6 µM), for the others: at the highest dose activation (PINK1 increase), actives largely listed as activators. 0.2% of 410,000 active. AID 624263, 2012; active = well fitted activation curve with a large enough effect; inconclusive = small, poorly fitted or top-dose-only effect; inactive = flat fitted curve, though single readings scatter; cell line not stated here;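 also: potency is read from the fitted curve at half-maximal effect; % of control where 0% means no effect; nearly all actives have a fitted effect of over 65% in size; a mitochondrial uncoupler was the plate control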
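Decision-based qHTS: stable cells, 24 h exposure to five compound concentrations, CCCP as control. Fixed cells stained for PINK1 plus nuclear, mitochondrial and cell markers, cytometer read.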
D2 agonist: Beta-Arrestin HTS for Positive Allosteric Modulators of the Human D2 Dopamine Receptor: Agonists. D(2) dopamine receptor (Homo sapiens), P14416. DiscoveRx PathHunter D2 beta-arrestin, luminescence, 90 min; 100% = 57 uM dopamine signal. activation, % (test concentration not listed). 0.084% of 360,000 active; in the data active = activation above about 40%; inconclusive = about 15% to 40%; inactive = below about 15%; also: compound concentration not given in the record; the text of the record calls up to 30% inactive
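DiscoveRx PathHunter D2 beta-arrestin cells (2,100/well) attached overnight, then compound-stimulated 90 min at 37 C in HBSS/10 mM HEPES/0.1% Tween-20 buffer; beta-galactosidase complementation read by luminescence after 1 h at ambient temperature. Dopamine 57 uM final (EC100) as control.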
Numbers without * were called inactive; ? = inconclusive; / = not tested or not shown; & = joins results of further samples; [ ] = another dose, or the depositor's remark.

SMILES | TRPML1 agonist | D2 potentiator | Six1-Eya2 inh | CtBP-E1A blk | PINK1 expr mod | D2 agonist
CN(C(=O)CSc1cc(Cl)ccc1Cl)C1CCS(=O)(=O)C1 (configuration not stated) | -0.2 | -19 | 12 | -1 | -0.3% | -1.6
COc1cccc(/C=C/C(=O)c2ccc(NC3=NCCCS3)cc2)c1 | 3.0 | -5 | 12 | -3 | -0.8% | -5.0
O=C(NNS(=O)(=O)c1ccccc1)c1csc(-c2cccnc2)n1 | -0.3 | -9 | -23 | -9 | -2.8% | -5.6
Cc1nc2c(C)cccn2c1/C(O)=C1\C(=O)C(=O)N(CCN2CCOCC2)C1c1ccncc1 (configuration not stated) | -0.3 | 6 | 10 | 0 | 0.2% | -4.6
S=c1[nH]nc(-c2ccncc2)n1CC1CCCO1 (configuration not stated) | -0.4 | -12 | 19 | 0 | -0.4% | -2.3
Cc1cc(C)nc(/N=C(/NC(=O)Nc2cccc(Cl)c2)Nc2ccccc2)n1 | 7.0 | -9 | 1 | 11 | 5.5%[38.3 µM] | -4.0
c1ccc(Nc2nc3ccccc3n3cnnc23)cc1 | -0.6 | -4 | -3 | 3 | 2.2% | -2.8
O=C1CCC[C@@H]2Cc3nc4cc5c(cc4cc3[C@@H]3CCN1[C@H]23)OCO5 | -0.9&-0.6 | -4 | ? | -12 | 5.6% | 2.3
COc1cc(/C=N/Nc2ccc(Cl)c(C(=O)O)c2)ccc1OC(=O)c1cccs1 | 0.0 | 18 | -11 | -26 | 0.2% | 12
O=C1OC(c2ccc(Cl)cc2)=N/C1=C\C=C\c1ccco1 | 1.0 | 7 | -1 | 3 | 0.0% | 4.5
O=C(NCCN1CCC(n2c(=O)[nH]c3ccccc32)CC1)c1ccc(OC(F)(F)F)cc1 | -0.7 | / | -2 | -1 | 1.0% | /
CSc1ncnc2c1ncn2CCCNCC1CCCCC1 | / | / | 2 | -6 | -1.2% | -3.0
COc1ccc(N(Cc2cc3cccc(C)c3[nH]c2=O)S(=O)(=O)c2ccc(OC)cc2)cc1 | -0.8 | -6 | -2 | 4 | 7.1% | -1.6
COc1cc(C2c3c(oc4c(C)cc(C)cc4c3=O)C(=O)N2Cc2cccnc2)ccc1O (configuration not stated) | -1.3 | 12 | 1 | 3 | -1.5% | 1.6
COc1cccc(NC(=S)NNC(=O)c2c([N+](=O)[O-])c(C)nn2C)c1 | -0.1 | -23 | -3 | -14 | 13%[38.3 µM] | -6.7
CCOC(=O)N1CCC(N(CCN(C)C)C(=S)Nc2ccccc2OC)CC1 | -0.6 | -2 | 7 | 3 | 1.2% | -6.2
COc1ccc(OC)c(/C=N/NC(=O)CCCC(=O)Nc2cccc(Br)c2)c1 | 2.0 | -12 | -16 | -11 | -0.1%[38.3 µM] | -2.0
CSc1nc2ccsc2c(=O)n1-c1cccnc1 | -0.3 | -7 | 3 | 2 | 2.6% | -0.7
CC(C)Oc1cccc(C(=O)Nc2ccccc2N2CCOCC2)c1 | -0.1 | -2 | 8 | -1 | -0.7% | 2.1
COCCNC(=S)Nc1ccc(S(=O)(=O)Nc2cnc3ccccc3n2)cc1 | 0.3 | -5 | 3 | / | 1.6% | -6.9
CC(=O)N1c2c(cc(Br)cc2S(=O)(=O)NCc2cccnc2)CC1C (configuration not stated) | 1.5 | 4 | -3 | -8 | -1.0% | 2.3
O=C(CCCN1C(=O)c2ccccc2C1=O)Nc1cccc(S(=O)(=O)NC2=NCCC2)c1 | -1.2 | -4 | 0 | 7 | -1.2% | -12
CC(=O)N=C1SC2CS(=O)(=O)CC2N1c1cccc(Cl)c1Cl (configuration not stated) | -0.4 | -6 | 1 | -5 | -0.8% | 2.5
COC(=O)c1ccc(NC(=O)C(=O)N2CCN(C(=S)Nc3cccc(C)c3C)CC2)cc1 | -0.4 | -6 | 11 | 9 | 13% | -0.3
CC(C)C(=O)N/N=C/c1ccc(OCc2ccccc2)cc1 | 1.8 | -1 | 3 | 7 | 2.4% | 0.6

Compound profiles, as listed above:
`COc1ccc(N(Cc2cc3cccc(C)c3[nH]c2=O)S(=O)(=O)c2ccc(OC)cc2)cc1` across the screens: TRPML1 agonist = -0.8; D2 potentiator = -6; Six1-Eya2 inh = -2; CtBP-E1A blk = 4; PINK1 expr mod = 7.1%; D2 agonist = -1.6
`c1ccc(Nc2nc3ccccc3n3cnnc23)cc1` across the screens: TRPML1 agonist = -0.6; D2 potentiator = -4; Six1-Eya2 inh = -3; CtBP-E1A blk = 3; PINK1 expr mod = 2.2%; D2 agonist = -2.8

Going on with the list.
SMILES | TRPML1 agonist | D2 potentiator | Six1-Eya2 inh | CtBP-E1A blk | PINK1 expr mod | D2 agonist
COc1ccc(S(=O)(=O)NC2CCCC2)cc1Cl | -0.4 | -4 | 4 | 7 | 0.1% | -1.5
CCCc1nc2c(C)cc(Br)cn2c1Cc1cccc(F)c1 | -0.2 | -7 | 6 | 13 | 5.5% | -4.6
CCCCOc1ccc(-c2nnn(C(C)C(=O)OCC)n2)cc1 (configuration not stated) | 2.2 | 3 | 47 | 35 | -0.4% | -1.0
CC(=O)c1c(NC(=O)c2ccccc2)[nH]c(-c2ccccc2)nc1=S | 1.0 | -13 | -3 | -2 | 1.8% | -9.8
CCN1CCN(c2cc(C)c3cc(NC(=O)CCC(=O)N4CCN(c5ccccc5)CC4)ccc3n2)CC1 | -0.2 | -20 | 4 | -3 | 1.3% | 3.8
COc1ccccc1OCCC(=O)OCC(=O)c1c(N)n(C)c(=O)n(C)c1=O | 0.0 | -8 | -8 | -1 | -0.9% | -2.3
Cc1ccc(-c2nc3ccccc3c(=O)n2NC(=O)c2cccs2)cc1 | 0.8 | -3 | 5 | 6 | 0.0% | 0.7
C=CCC1Cc2c(cccc2[N+](=O)[O-])C(CC=C)N1 (configuration not stated) | -0.9 | ? | ? | ? | 2.1% | ?
COc1ccc(Cc2nc(-c3ccc(Br)o3)no2)cc1OC | 1.7 | 3 | 5 | 2 | 2.0% | 6.3
CC(C)C(=O)N1CCN(c2ccc(NC(=O)c3ccc4c(c3)OCCO4)cc2)CC1 | 0.5 | 2 | 2 | -3 | 9.0% | -0.2
COc1ccc(/C=N/NC(=O)C(=O)N2CCCCCC2)cc1[N+](=O)[O-] | -0.3 | -7 | 0 | 2 | 0.2% | 1.3
CC(c1ccco1)N(C(=O)Nc1ccc(Cl)cc1)c1ccccn1 (configuration not stated) | -0.7 | -31 | -29 | -2 | 1.2% | 0.0
COc1ccc(CCNC(=O)C(NS(=O)(=O)c2cccc3nsnc23)C(C)C)cc1OC (configuration not stated) | -1.2 | -4 | 0 | -6 | -0.7% | -2.5
COc1ccc(N(CC(=O)N/N=C/c2ccco2)S(=O)(=O)c2ccccc2)cc1 | 1.2 | -5 | -1 | 9 | / | -4.2
CC(=O)Nc1sc(C)c(C)c1C(=O)Nc1ccc(C)cc1 | -0.6 | -18 | -1 | 4 | 3.2%[38.3 µM] | -3.4
Cn1nccc1C(=O)NC(=S)Nc1cc(Cl)cc(Cl)c1 | -0.9 | -6 | 1 | 3 | 5.5% | -3.8
C/C(=N\NC1=NCCN1)c1ccc(N)c([N+](=O)[O-])c1 | 0.2 | -30 | -17 | -8 | 2.1% | -2.1
O=C(O)c1ccccc1C(=O)NNc1ccc(Cl)cc1 | -0.5 | -8 | 4 | -2 | -3.2% | -6.2
COC(=O)c1ccccc1Sc1c(/C=N/OCc2ccc(Cl)cc2)c(C(F)(F)F)nn1C | -0.9 | 11 | 7 | 2 | 6.8% | -0.2
CCC(C)[C@H]1CNCCN1CC1(c2ccccc2)CC1 (some centres not stated) | 0.2 | -13 | 7 | / | -0.6% | -4.5
CN1CCC(=NNC(=O)C(=O)Nc2ccc(F)cc2)CC1 | 0.1 | -1 | 6 | / | -0.2% | 0.4
O=C(NCCc1c[nH]c2ccccc12)c1ccc([N+](=O)[O-])o1 | -0.6 | 15 | -9 | -7 | 4.5% | 7.3
Cc1cccc(C(=O)NC2CC(C)(C)NC(C)(C)C2)c1 | -0.7 | 6 | 11 | -2 | 0.7% | -0.3
NNC(=O)CN1C(c2ccccc2Br)=Nc2ccc(Br)cc2C1c1ccccc1 (configuration not stated) | 3.7 | -38 | -7 | -2 | 6.1% | -7.0
CCCOc1ccc(N2C(=O)CC(N(CCc3ccc(OC)cc3)C(=O)c3cccc(F)c3)C2=O)cc1 (configuration not stated) | -0.8 | -2 | -4 | 0 | 2.9% | -2.3

Structural class, those above containing bromine
SMILES | TRPML1 agonist | D2 potentiator | Six1-Eya2 inh | CtBP-E1A blk | PINK1 expr mod | D2 agonist
COc1ccc(OC)c(/C=N/NC(=O)CCCC(=O)Nc2cccc(Br)c2)c1 | 2.0 | -12 | -16 | -11 | -0.1%[38.3 µM] | -2.0
CC(=O)N1c2c(cc(Br)cc2S(=O)(=O)NCc2cccnc2)CC1C (configuration not stated) | 1.5 | 4 | -3 | -8 | -1.0% | 2.3
CCCc1nc2c(C)cc(Br)cn2c1Cc1cccc(F)c1 | -0.2 | -7 | 6 | 13 | 5.5% | -4.6
COc1ccc(Cc2nc(-c3ccc(Br)o3)no2)cc1OC | 1.7 | 3 | 5 | 2 | 2.0% | 6.3
NNC(=O)CN1C(c2ccccc2Br)=Nc2ccc(Br)cc2C1c1ccccc1 (configuration not stated) | 3.7 | -38 | -7 | -2 | 6.1% | -7.0

The results go on:
SMILES | TRPML1 agonist | D2 potentiator | Six1-Eya2 inh | CtBP-E1A blk | PINK1 expr mod | D2 agonist
O=C(c1ccc(N2CCOCC2)c([N+](=O)[O-])c1)N1CCN(Cc2ccccc2)CC1 | -0.6 | -6 | -9 | -6 | 0.7% | 2.8
Cc1cn([C@H]2C[C@H](O)[C@@H](/C=C/C(=O)NCCc3ccc4ccccc4c3)O2)c(=O)[nH]c1=O | -0.7 | -1 | -5 | 0 | 1.3% | -2.1
CC(C)CC1=NN(C(=O)c2ccco2)C(O)(C(F)(F)F)C1 (configuration not stated) | 0.1 | -1 | 1 | 3 | 0.4% | -2.9
CC(=O)c1ccc(S(=O)(=O)N2CCN(CCOc3ccc(Br)cc3)CC2)cc1 | 1.4 | -3 | -8 | -22 | 0.2% | 2.3
Cc1ccc(C(=O)NCC(=O)NCCc2ccc(S(N)(=O)=O)cc2)s1 | -0.8 | -22 | 10 | / | 2.3% | -3.4
CCOc1ccc(NC(=O)CSc2nc3ccccc3c(=O)n2Cc2cccs2)cc1 | 0.8 | 4 | 5 | 2 | ? | 0.4
